Vif A3G: inhibitors of Vif binding to APOBEC3G peptide, primary screen, biochemical, TR-FRET, GST-Vif 1-94, biotin-A3G peptide, dose response retest (AID 1117319); Virion infectivity factor (Human immunodeficiency virus type 1 group M subtype B (isolate …; TR-FRET GST-Vif / biotin-A3G peptide binding; higher % means a stronger effect; test concentration not given here; strong numbers were not always called active; inhibition, %, or IC50 in µM where a hit was titrated; actives 0.57% (n = 260,000);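 active means above the screen mean plus three standard deviations and confirmed in dose response; inconclusive means results disagree or hit not tested in dose response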;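 further: Vif residues 1-94 fused to GST binding biotinylated APOBEC3G peptide 110-148; 0% = full assay without inhibitor and 100% = GST in place of GST-Vif; retest series ran down from 100 µM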
Calb FLC: C. albicans growth inhibition with fluconazole, primary screen, CaCi-2 strain, Alamar Blue fluorescence; C. albicans CaCi-2 (fluconazole-resistant clinical isolate) + fluconazole, 48 h; growth inhibition, % (concentration not given with the values); actives 0.57% (n = 300,000);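 active means most replicates above 75%; inconclusive means exactly half above 75%; inactive means most below 75%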;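 further: all wells also contain fluconazole at 8 µg/ml as a sub-toxic cotreatment; 0% = median of DMSO wells and 100% = median of geldanamycin control wells; wells of about 8 µL received 7.5 nL stock; the first replicate is given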
LANA-H2A inh: blockers of LANA interaction with H2A/H2B – biochemical, FP readout, HTS, primary screen; inhibition, % (no concentration beside the values); Protein LANA1 (Human herpesvirus 8 type P (isolate GK18)), Q9QR71; cell-free LANA-H2A/H2B peptide, fluorescence polarization; actives 0.6% (n = 320,000); in the data active means inhibition mostly above about 10%, no sharp cut-off; inactive means mostly below about 6.7%;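 further: stock transfer was 7.5 nL into about 10 µL; 0% = median of vehicle wells and 100% = median of positive control wells; one replicate is shown; the record names a cut of 25% in any replicate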
HNF4A DNA FP: change in binding of human HNF4A to DNA, primary screen, biochemical, fluorescence polarization, FITC-DNA | activity change, % at 10 µM | 1 h | actives 0.3% (n = 360,000) | Hepatocyte nuclear factor 4-alpha (Homo sapiens), P41235; in the data active means activity change above about 30%, passing the limit was not always enough;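 further: controls were the assay level and a saturating level of protein; the project sought stronger binding though the title names inhibitors; some compounds called inactive have numbers as strong as hits; positive values seem to mean higher polarization but the record does not say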
Target sequence (P41235 whole entry, looked up): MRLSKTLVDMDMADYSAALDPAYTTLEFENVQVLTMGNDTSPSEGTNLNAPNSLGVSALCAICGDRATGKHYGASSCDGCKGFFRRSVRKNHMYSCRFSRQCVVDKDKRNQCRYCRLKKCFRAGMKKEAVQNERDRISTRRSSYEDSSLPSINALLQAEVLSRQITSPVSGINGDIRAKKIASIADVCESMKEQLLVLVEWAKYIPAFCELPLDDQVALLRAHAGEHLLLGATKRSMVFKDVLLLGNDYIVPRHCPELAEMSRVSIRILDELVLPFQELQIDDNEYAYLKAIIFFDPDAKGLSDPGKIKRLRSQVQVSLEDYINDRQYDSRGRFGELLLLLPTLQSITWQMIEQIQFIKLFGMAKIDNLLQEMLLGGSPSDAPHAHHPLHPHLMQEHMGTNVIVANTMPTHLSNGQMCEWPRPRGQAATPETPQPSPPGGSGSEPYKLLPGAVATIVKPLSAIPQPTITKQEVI
B2AR ag: beta2AR agonists driving receptor internalization, primary screen, cell-based, FAP fluorogen, flow cytometry; AID 504454, 2011; response, % (test concentration not listed); Am2.2-beta2AR cells; reference of the scale not given here; Beta-2 adrenergic receptor (Homo sapiens), P07550; actives 0.43% (n = 340,000);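 active means response above a set limit, near 3 SD of response in nonfluorescent compounds, cut at about 42% in these data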;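 further: stock transfer was 100 nL into about 11 µL; a reference agonist was the positive control; negative values mostly stem from fluorescent compounds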
ALR H2O2 inh: inhibitors of human ALR sulfhydryl oxidase, primary screen, biochemical, H2O2 detection, HRP-luminol luminescence, single point. FAD-linked sulfhydryl oxidase ALR (Homo sapiens), P55789. purified ALR, DTT oxidation. inhibition, % (concentration not given with the values). actives 3.8% (n = 290,000). AID 485317, 2010;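 active means mean and each replicate at 75% or more; inconclusive means only one of the two met; inactive means neither met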;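 further: stock transfer was 7.5 nL into about 7.5 µL; 0% = neutral wells and 100% = wells with inactivated enzyme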
Target sequence (P55789 whole entry, looked up): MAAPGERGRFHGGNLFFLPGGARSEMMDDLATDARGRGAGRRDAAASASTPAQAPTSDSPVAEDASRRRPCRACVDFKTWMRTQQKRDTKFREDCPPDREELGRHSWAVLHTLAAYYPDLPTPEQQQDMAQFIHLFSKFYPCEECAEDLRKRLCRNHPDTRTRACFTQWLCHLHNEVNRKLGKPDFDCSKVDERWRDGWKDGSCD
RanGTP-Imp inh: inhibitors of RanGTP-importin-beta interaction, primary screen, biochemical, FRET, CFP-Ran, YFP-importin-beta, homogeneous | inhibition, % (no concentration beside the values) | actives 1.1% (n = 300,000) | cell-free CFP-Ran/YFP-importin-beta FRET ratio | AID 2216, 2009 | Ran GTPase (GTP-bound) - importin-beta complex;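 active means most replicates above 15%; inconclusive means exactly half above 15%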;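 further: 0% = DMSO wells and 100% = Ran loaded with GDP instead of GTP; wells of about 40 µL received 100 nL stock; the first replicate is given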
Active calls of the source: *; ? = inconclusive; . = no result given; & = joins results of further samples.

Values run as follows: Vif A3G	Calb FLC	LANA-H2A inh	HNF4A DNA FP	B2AR ag	ALR H2O2 inh	RanGTP-Imp inh
- CCn1c(=O)n(CC(=O)Nc2cc(OC)ccc2OC)c(=O)c2ccccc21
  -8%&25%	1	0.6	-2.8	-11	99*	0.2
- O=C(OCC1CC(c2ccccn2)=NO1)c1ccc(Br)cc1 (centres undefined)
  20%	4	0.0	-1.9	-6	1	?
- O=S(=O)(c1ccc(NC(=S)NC2CCCC2)cc1)N1CCCC1
  -5%	-1	1.0	-2.3	-1	16	5.7
- CN(C)C(CNc1ncccn1)c1ccccc1 (centres undefined)
  .	-12	5.3	-2.4	6	28	2.9
- CCOC(=O)c1cnn(CCOC(=O)c2ccccc2)c1NC(=O)c1ccccc1
  -7%	33	-4.9	-1.6	-9	-2	-2.6
- O=C(Nc1ccc(C(=O)c2ccc(C(=O)O)c(C(=O)O)c2)cc1)c1ccccc1
  .	-18	-4.5	5.4	0	62	4.8
- O=C1CCC(=O)N1c1ccc(NC2CCN(Cc3ccccc3)CC2)c([N+](=O)[O-])c1
  14%	-3	-5.2	-1.9	5	-6	?
- CCCCNCc1ccc(SC)cc1
  7%	-6	3.3	0.6	2	-3	-3.8
- COc1ccc(NC(=O)C(=O)NNC(=O)COc2ccc(Cl)cc2)c(OC)c1
  1%	2	5.0	-0.7	5	-1	6.6
- Cc1cc(Br)ccc1-n1[nH]c(C)c(C=Nc2cccc3nsnc23)c1=O
  12%	7	-2.0	10	-2	-19	-2.3
- CC(C)CN(C(=O)CN1CCN(S(=O)(=O)c2ccc3ccccc3c2)CC1)c1c(N)n(CC(C)C)c(=O)[nH]c1=O
  -7%	-5	4.5	3.2	-5	-15	6.3
- COc1ccccc1CNC(=O)CS(=O)Cc1nc(-c2ccc(OC)c(OC)c2)oc1C (centres undefined)
  .	-6	-1.2	-0.3	-1	99*	-3.0
- O=C(COC(=O)c1ccc2ncsc2c1)NC(=O)NCc1ccccc1
  -3%	0	-4.3	-2.4	1	0	-3.9
- COc1ccc(OC)c(-c2cn(S(=O)(=O)c3ccccc3)nc2N)c1
  2%	1	-0.9	-0.8	5	-2	-1.4
- O=[N+]([O-])c1ccc(CP(=O)(c2ccccc2)c2ccccc2)cc1
  4%	4	3.7	-0.2	0	1	-4.7
- Cc1cc(OCC(O)CN2CCN(CCO)CC2)ccc1C(C)C (centres undefined)
  -1%&-5%	-4	-5.6	0.3	2	-6	-1.0
- NC1=NC[C@@H](Cc2ccc(O)cc2)N1CC1CCCCC1
  -4%	-12	1.0	-1.9	0	.	-4.9
- Nn1c(SCC(=O)Nc2cc(C(F)(F)F)ccc2Cl)nncc1=O
  12%	-19	2.5	-1.6	6	16	4.5
- Cc1ccc(NC(=O)CCC(=O)NNC(=O)NC2CCCCC2)c(C)c1
  -5%	-8	-1.1	-1.8	6	-19	-1.4
- CCOC(=O)[C@H]1[C@H]2COc3ccc(C)cc3[C@@H]2N2C(=O)c3ccccc3NC(=O)[C@@]12C
  .	.	-7.3	0.0	-2	-1	.
- COc1ccc(Oc2nc3ccccc3n(C)c2=O)cc1
  3%	44	-4.3	-0.6	-23	-13	-3.2
- COc1ccccc1CC(=O)N(CCC#N)CCC#N
  -4%	-1	-1.8	2.3	1	.	0.5
- COc1ccccc1C(=O)NNC(=O)CCC(=O)NCc1ccccc1
  .	-5	-3.3	1.8	4	-3	-0.5
- COc1ccc(C/C(C)=N/NC(=O)c2ccc(Cl)cc2)cc1
  9%	2	-1.0	-2.0	3	-8	?
- COc1ccc(NS(=O)(=O)c2cc([N+](=O)[O-])ccc2NN=Cc2ccccc2OCC(=O)O)cc1
  .	.	6.9	2.4	4	.	.
- O=S1(=O)CCOC[C@H](CC2CCCCC2)N1Cc1cccc(Cl)c1
  .	-7	0.7	3.0	-5	-3	-6.2
- Cc1ccc(CCC(=O)Nc2cc(Cl)ccc2Cl)o1
  .	-14	4.2	1.3	-11	-5	-1.0
- O=C1CC(CC(=O)N/N=C/c2ccccc2[N+](=O)[O-])=NN1
  ?	7	-2.7	-4.3	4	10	2.9
- CCOC(=O)C1=C(O)C(=O)N(c2ccc(S(N)(=O)=O)cc2)C1c1ccc([N+](=O)[O-])cc1 (centres undefined)
  15%	-4	3.2	24	-5	14	-0.1
- CCN(c1ccccc1)S(=O)(=O)c1ccc(OCc2c(C)noc2C)cc1
  15%	-1	-1.7	0.9	3	-3	4.1

An excerpt of these results, with tabs.
compound	Vif A3G	Calb FLC	LANA-H2A inh	HNF4A DNA FP	B2AR ag	ALR H2O2 inh	RanGTP-Imp inh
CCn1c(=O)n(CC(=O)Nc2cc(OC)ccc2OC)c(=O)c2ccccc21	-8%&25%	1	0.6	-2.8	-11	99*	0.2
O=C(OCC1CC(c2ccccn2)=NO1)c1ccc(Br)cc1 (centres undefined)	20%	4	0.0	-1.9	-6	1	?
O=S(=O)(c1ccc(NC(=S)NC2CCCC2)cc1)N1CCCC1	-5%	-1	1.0	-2.3	-1	16	5.7
CN(C)C(CNc1ncccn1)c1ccccc1 (centres undefined)	.	-12	5.3	-2.4	6	28	2.9
CCOC(=O)c1cnn(CCOC(=O)c2ccccc2)c1NC(=O)c1ccccc1	-7%	33	-4.9	-1.6	-9	-2	-2.6
O=C(Nc1ccc(C(=O)c2ccc(C(=O)O)c(C(=O)O)c2)cc1)c1ccccc1	.	-18	-4.5	5.4	0	62	4.8
O=C1CCC(=O)N1c1ccc(NC2CCN(Cc3ccccc3)CC2)c([N+](=O)[O-])c1	14%	-3	-5.2	-1.9	5	-6	?
CCCCNCc1ccc(SC)cc1	7%	-6	3.3	0.6	2	-3	-3.8
COc1ccc(NC(=O)C(=O)NNC(=O)COc2ccc(Cl)cc2)c(OC)c1	1%	2	5.0	-0.7	5	-1	6.6

(next part)
Values run as follows: Vif A3G	Calb FLC	LANA-H2A inh	HNF4A DNA FP	B2AR ag	ALR H2O2 inh	RanGTP-Imp inh
- O=C(O)c1ccccc1C(=O)Nc1ccc(-n2nc(C(F)(F)F)cc2C(F)(F)F)cc1
  1%	0	-2.0	1.2	-6	-20	0.4
- O=C(N/N=C/c1cc(Br)ccc1O)Nc1ccccc1
  .	-12	-4.9	2.4	-7	6	-0.2
- O=C1CCC[C@H]2c3[nH]c4ccccc4c3CCN12
  .	11	-10.0	2.5	-5	41	3.3
- CC(C)Cn1c(N)c(C(=O)CSc2ccccc2)c(=O)n(C)c1=O
  -2%	0	.	5.2	-6	-1	2.1
- Cc1nn(CC(=O)NCCCc2ccccc2)c(=O)c2cccn12
  .	-5	-1.6	-2.2	-6	-4	1.9
- Cn1c(N)c(C(=O)COC(=O)C2=NNC(=O)CC2)c(=O)n(C)c1=O
  -13%	1	-0.4	-2.5	-5	.	2.3
- c1ccc(-n2cnnc2SCc2cn3cccnc3n2)cc1
  ?	6	-6.5	4.0	-5	-13	-3.7
- COc1cccc(N2CCN(Cc3ncc(-c4ccccc4)o3)CC2)c1
  .	5	-7.2	-2.4	-9	50	-1.8
- Cc1ccc(-c2nc3ncccc3o2)cc1NC(=O)c1cc2ccccc2o1
  -8%	17	-3.3	3.8	10	-3	-1.8
- CCCCC(=O)Nc1sc2c(c1C#N)CC(C)(C)OC2
  -8%	-3	1.5	6.0	-2	-2	0.4
- Cc1cccc(NS(=O)(=O)c2cc(C(=O)NCc3ccccn3)ccc2C)c1
  .	4	-2.3	2.0	-1	-11	-0.2
- CC1CCCCC12NC(=O)N(CC(=O)N1CCN(S(=O)(=O)Cc3ccccc3)CC1)C2=O (centres undefined)
  -26%	.	2.1	3.9	-2	-10	.
- CCc1ccc(NC(=O)NCC2CCN(c3ccc(OC)cc3)C2)cc1 (centres undefined)
  7%	4	1.7	-1.0	14	50	-0.4
- CC(C)n1c(S(=O)(=O)O)nc2ccccc21
  -1%	9	15	-0.3	22	-2	3.8
- O=C(N/N=C\c1ccc([N+](=O)[O-])o1)c1cncc(Br)c1
  19%	-2	-4.5	-3.9	18	-20	?
- O=C(Oc1coc(CSc2nnc(NC(=O)C3CC3)s2)cc1=O)c1c(F)cccc1F
  19%	-11	-13	-4.7	2	97*	2.7
- CC1=C(C(=O)NC2CCCCC2C)C2(CCC(C)CC2)OC1=O (centres undefined)
  -7%	9	1.6	0.9	3	-5	5.2
- O=C(CSc1ccccc1C(=O)O)NCc1ccc(Cl)cc1
  13%	-17	-1.6	-1.3	1	3	-0.4
- COc1cc(NC(=O)c2ccc(NC3=NC4CS(=O)(=O)CC4S3)cc2)cc(OC)c1OC (centres undefined)
  .	-13	-1.5	-4.5	-1	-8	1.5
- Cc1cccc(C)c1N(CC(=O)NN=C1CCCCCC1)S(C)(=O)=O
  4%	-1	7.5	-2.3	-3	1	-3.2
- COc1ccc(F)c(CN(C)CC2CCCN(CCc3ccc(F)cc3)C2)c1 (centres undefined)
  2%	-17	0.7	0.3	1	3	1.3
- CCN(CC)C(=O)Cn1cc(/C=C(\C#N)C(=O)NC2CC2)c2ccccc21
  .	-5	4.6	0.7	0	4	6.8
- CCOC(=O)c1cnc(-n2nc(C)cc2C)nc1NCc1ccccc1
  3%	-13	4.9	2.7	-4	4	1.8
- C[C@@H]1[C@@H](Sc2ccccc2)CC(=O)O[C@@H]1c1ccc(-c2ccccc2)cc1
  .	11	-3.7	0.6	15	-2	0.8
- CCc1ccc(N2C(=O)Cc3c2nc(N)c(C#N)c3N)cc1
  56%	15	4.9	4.0	-6	-64	0.7
- O=C(COc1ccc(F)cc1Cl)Nc1ccccc1C(=O)N1CCCCC1
  0%	0	-5.2	3.1	3	-9	4.5
- CCN(CC)C1CCN(Cc2cn[nH]c2-c2ccc(OC)c(F)c2)C1 (centres undefined)
  ?	22	6.6	-1.5	12	-11	-3.7
- COc1cccc(CN2CC(C(=O)NC3CCC3)CCC2=O)c1 (centres undefined)
  .	-7	2.0	0.8	2	-18	-0.6
- COCCNC(=O)CN(Cc1ccc(OC)cc1)C(=O)CCC(=O)Nc1nccs1
  -7%	-10	0.1	-3.5	-2	1	-0.8
- CCOC(=O)C1C(c2cccnc2)NC(=O)NC1(O)C(F)(F)F (centres undefined)
  -1%	-5	1.5	3.2	-4	-7	1.9
- COc1ccc(S(=O)(=O)N(C)CC(=O)N2CCCC2)cc1OC
  .	10	3.2	-0.2	5	-5	0.3
- COc1ccc(NS(=O)(=O)c2ccc(F)cc2F)cn1
  .	-4	0.9	-1.1	2	-5	4.7
- O=C(CNC(=O)c1ccco1)Nc1ccc(N2CCCCCC2)cc1
  5%	.	-0.6	0.6	8	98*	.

2 entries from above, tab-delimited:
molecule	Vif A3G	Calb FLC	LANA-H2A inh	HNF4A DNA FP	B2AR ag	ALR H2O2 inh	RanGTP-Imp inh
COc1cccc(N2CCN(Cc3ncc(-c4ccccc4)o3)CC2)c1	.	5	-7.2	-2.4	-9	50	-1.8
CC1=C(C(=O)NC2CCCCC2C)C2(CCC(C)CC2)OC1=O (centres undefined)	-7%	9	1.6	0.9	3	-5	5.2

Screens deposited in PubChem by several laboratories.
